High-throughput results: PubChem, National Center for Advancing Translational Sciences (NCATS)
Vaccinia Venus – qHTS for Stage-Specific Inhibitors of Vaccinia Orthopoxvirus: Venus Reporter Primary qHTS; Vaccinia virus Venus reporter expression, fluorescence; Potency, µM (highest dose often 36.5 µM), for the others: top-dose activity change, negative = inhibition, hits mostly inhibitors; actives 0.46% (n = 330,000); active means well fitted inhibition curve with a large enough effect; inconclusive means small, poorly fitted or top-dose-only effect; inactive means no such curve, though single readings can be large or run the other way; tested in A549 cells; note: nearly all actives have a fitted effect of over 30% in size; inactives centre near -10
Vaccinia mCherry – qHTS for Stage-Specific Inhibitors of Vaccinia Orthopoxvirus: mCherry Reporter Primary qHTS; Vaccinia virus mCherry reporter infection, fluorescence; about a quarter of the inactives have no number; Potency, µM (top dose mostly 36.5 µM), for the others: at the highest dose activity change, negative = inhibition, usual class: inhibitors; actives 0.63% (n = 310,000); active = well fitted inhibition curve with a large enough effect; inconclusive = small, poorly fitted or top-dose-only effect; inactive = no such curve, though single readings can be large or run the other way; tested in A549 cells; note: nearly all actives have a fitted effect of over 35% in size; inactives centre near -10
* hit, by the source's call; & = joins results of further samples; [ ] = another dose, or the depositor's remark. % is set by controls: 0 for no effect and ±100 for the full control effect; potency is the fitted concentration of half-maximal effect.

COc1ccc(OC)c(-c2noc(N3CCN(c4ccc(C(C)=O)cc4)CC3)n2)c1 was read as Vaccinia Venus -12.7% and Vaccinia mCherry -9.9%.
Screening Cc1c(NC(=O)C(C)Sc2n[nH]c(N)n2)c(=O)n(-c2ccccc2)n1C (stereo not drawn) returned Vaccinia Venus -14.2%.
`COc1ccc(OCCCC(=O)OCC(=O)Nc2ccc(Cl)cn2)cc1` gave Vaccinia Venus 1.2% and Vaccinia mCherry inactive.
For Cc1nc2ccccc2c(=O)n1NC(=O)c1ccccc1Cl the results were Vaccinia Venus -2.6% and Vaccinia mCherry -12.3%.
For Cc1cc(-c2ccc(C)c(S(=O)(=O)NCCc3ccccc3)c2)on1 the results were Vaccinia Venus -14.3% and Vaccinia mCherry -13.7%.
CCOC(=O)[C@H]1Nc2ccc(Cl)cc2[C@@H]2[C@H]1C1CC(c3ccccc31)N2C(=O)OCc1ccccc1 (stereo partly drawn) was read as Vaccinia Venus 0.5% and Vaccinia mCherry 21.3%.
Screening COc1ccc(N(C(=O)c2snc(C(N)=O)c2N)C(C(=O)NCc2ccc(F)cc2)c2ccc(C)o2)c(OC)c1 (stereo not drawn) returned Vaccinia Venus -11.9% and Vaccinia mCherry -20.2%.
CSc1ccc(C(=O)C2CCCN(C(=O)Cn3cnnn3)C2)cc1 (stereo not drawn) was read as Vaccinia Venus -5.3% and Vaccinia mCherry inactive.
Screening Cc1nn(C)c(Cl)c1CN1CCC(Oc2ccc(C(=O)N3CCCC3)cc2)CC1 returned Vaccinia Venus -14.0% and Vaccinia mCherry inactive.
Cc1cccc(C)c1NC(=O)Cn1c(=O)n(CC2CCC(C(=O)NCCc3ccccc3)CC2)c(=O)c2ccccc21 (stereo not drawn) was read as Vaccinia Venus inconclusive and Vaccinia mCherry inconclusive.
Cc1ccc(CCNC(=O)C2CCCN(S(=O)(=O)c3c(C)nn(C)c3C)C2)cc1 (stereo not drawn) was read as Vaccinia Venus -16.7% and Vaccinia mCherry inactive.
`CN=C1C([N+](=O)[O-])=CC=C2C1=NC1(CCCCC1)N2O` gave Vaccinia Venus 2.7% and Vaccinia mCherry -19.4%.
`Cc1noc(C)c1S(=O)(=O)Nc1ccc2c(c1)CC(=O)N([C@H](C)CO)C[C@H](C)[C@@H](CN(C)CC1CC1)O2` gave Vaccinia Venus -5.3% and Vaccinia mCherry inactive.
`COC(=O)CCCn1c(-c2ccc(C)cc2)c(C)n2c3c(=O)n(C)c(=O)n(C)c3nc12` gave Vaccinia Venus 1.0% and Vaccinia mCherry -7.7%.
For Cc1ccc2[nH]c(C(=O)NCc3nc(-c4cccc(NC(=O)c5cc(C)oc5C)c4)oc3C)cc2c1 the results were Vaccinia Venus -11.3% and Vaccinia mCherry -16.2%.

The last 4 compounds of the part above are carried over, then new ones follow.
`CN=C1C([N+](=O)[O-])=CC=C2C1=NC1(CCCCC1)N2O` gave Vaccinia Venus 2.7% and Vaccinia mCherry -19.4%.
`Cc1noc(C)c1S(=O)(=O)Nc1ccc2c(c1)CC(=O)N([C@H](C)CO)C[C@H](C)[C@@H](CN(C)CC1CC1)O2` gave Vaccinia Venus -5.3% and Vaccinia mCherry inactive.
`COC(=O)CCCn1c(-c2ccc(C)cc2)c(C)n2c3c(=O)n(C)c(=O)n(C)c3nc12` gave Vaccinia Venus 1.0% and Vaccinia mCherry -7.7%.
For Cc1ccc2[nH]c(C(=O)NCc3nc(-c4cccc(NC(=O)c5cc(C)oc5C)c4)oc3C)cc2c1 the results were Vaccinia Venus -11.3% and Vaccinia mCherry -16.2%.
CCc1nc2c(OCC(=O)C(C)(C)C)cccn2c1N(C)C(=O)c1ccc(C)cc1 was read as Vaccinia Venus -4.3% and Vaccinia mCherry 22.9%.
N#CC[n+]1cccc(Br)c1 was read as Vaccinia Venus -2.7% and Vaccinia mCherry 37.1%[activator].
Cc1ccc(N2C(=O)NC(=O)/C(=C/c3ccoc3)C2=O)cc1 was read as Vaccinia Venus 54.4%[activator] and Vaccinia mCherry -7.2%.
COc1cc(OC)c(OC)cc1/C=N/NC(=O)c1ccc(CSc2nc(C)cc(C)n2)cc1 was read as Vaccinia Venus -10.0% and Vaccinia mCherry -11.4%.
CC(=O)c1c(C)nn(-c2ccccc2)c1C was read as Vaccinia Venus 0.1% and Vaccinia mCherry -7.6%.
Screening O=C(CN1C(=O)C2CC=CCC2C1=O)NCC1COc2ccccc2O1 (stereo not drawn) returned Vaccinia Venus -5.5%.
`Nc1nc(-c2cccnc2)nn1C(=O)c1ccc(F)cc1` gave Vaccinia Venus -4.1% and Vaccinia mCherry -21.2%.
Screening Cn1ccnc1C1CCCCN1C(=O)c1cc(COc2ccc(F)cc2Cl)on1 (stereo not drawn) returned Vaccinia Venus -11.1% and Vaccinia mCherry inactive.
Screening C[C@@H]1CN([C@@H](C)CO)C(=O)CCCn2cc(nn2)CO[C@H]1CN(C)C(=O)c1ccc2ccn(C)c2c1 returned Vaccinia Venus -9.1% and Vaccinia mCherry -11.4%.
Screening CCn1cc(/C=N\NC(=O)c2ccc(F)cc2)cn1 returned Vaccinia Venus 2.0% and Vaccinia mCherry -10.3%.
Screening Nc1ncnc2c1ncn2[C@@H]1O[C@H](C(=O)N2CCSC2)[C@@H](O)[C@H]1O returned Vaccinia Venus 7.9% and Vaccinia mCherry 9.0%.
`O=C(NNC(=O)c1cc(Br)c(Br)s1)c1ccncc1` gave Vaccinia Venus -16.1% and Vaccinia mCherry -2.3%.
Screening Cc1ccc2cc(C#N)c(N3CCN(C)CC3)nc2c1 returned Vaccinia Venus -1.4% and Vaccinia mCherry -9.3%.
CC(C)=CCN1CCN(Cc2nc(-c3ccc(F)cc3)cs2)CC1CCO (stereo not drawn) was read as Vaccinia Venus -23.1%[7.34 µM] and Vaccinia mCherry -1.8%[7.34 µM].
Cc1ccnc(NC2OC(=O)c3ccccc32)c1 (stereo not drawn) was read as Vaccinia Venus 6.8%.

In the list so far, these contain bromine.
N#CC[n+]1cccc(Br)c1 was read as Vaccinia Venus -2.7% and Vaccinia mCherry 37.1%[activator].
`O=C(NNC(=O)c1cc(Br)c(Br)s1)c1ccncc1` gave Vaccinia Venus -16.1% and Vaccinia mCherry -2.3%.

Reprinted at random: 2 entries already listed
For Cc1nc2ccccc2c(=O)n1NC(=O)c1ccccc1Cl the results were Vaccinia Venus -2.6% and Vaccinia mCherry -12.3%.
Screening COc1ccc(N(C(=O)c2snc(C(N)=O)c2N)C(C(=O)NCc2ccc(F)cc2)c2ccc(C)o2)c(OC)c1 (stereo not drawn) returned Vaccinia Venus -11.9% and Vaccinia mCherry -20.2%.

Carrying on:
Screening CCn1cc(C(=O)NCCc2ccc(OC)c(OC)c2)c(=O)c2cc(S(=O)(=O)N3CCc4ccccc4C3)ccc21 returned Vaccinia Venus inconclusive and Vaccinia mCherry -13.2%.
For Cc1ccccc1CNC(=O)/C=C\C(=O)O the results were Vaccinia Venus -16.0% and Vaccinia mCherry -13.4%.
For O=c1oc(CCO)cc2ccc(C#Cc3ccsc3)cc12 the results were Vaccinia Venus inconclusive and Vaccinia mCherry inconclusive.
COc1ccc(C2CCc3cc4c(cc3C2=NOC(C)=O)OCO4)cc1OC (stereo not drawn) was read as Vaccinia Venus inconclusive and Vaccinia mCherry inconclusive.
CCCCC12CN3CC(C)(CN(C1)C3c1c[nH]c3ccccc13)C2=O (stereo not drawn) was read as Vaccinia Venus -9.7% and Vaccinia mCherry -4.7%.
Cc1cc(C)cc(NC(=O)C2CCCN2S(=O)(=O)c2cccc3nsnc23)c1 (stereo not drawn) was read as Vaccinia Venus -11.0% and Vaccinia mCherry -21.9%.
For CCOc1cc(C2C3=C(CCCC3=O)Nc3ccc4ncccc4c32)ccc1O (stereo not drawn) the results were Vaccinia Venus -23.7% and Vaccinia mCherry -50.5%.
O=C(NCC(=O)N1CCOCC1)c1ccccc1 was read as Vaccinia Venus 1.3% and Vaccinia mCherry inactive.
`Cc1ccc(CN2C(=O)C(Cc3ccccc3)Nc3ncnc(N4CCCCC4)c32)cc1` (stereo not drawn) gave Vaccinia Venus -14.4%&0.4% and Vaccinia mCherry -2.0%.
For Cc1sc2ncnc(N/N=C/c3ccc(O)cc3)c2c1C the results were Vaccinia Venus -26.2% and Vaccinia mCherry inconclusive.
O=C(c1cc(F)ccc1F)C1CCCN(C(=O)c2ccc3nccnc3c2)C1 (stereo not drawn) was read as Vaccinia Venus -22.9% and Vaccinia mCherry inactive.
`O=C(CN(C1CCCCC1)C1CCCCC1)N1CCc2ccccc2C1` gave Vaccinia Venus -19.2% and Vaccinia mCherry inactive.
For COc1cc(C2C(C#N)=C(N)Oc3cc(N)ccc32)cc(OC)c1OC (stereo not drawn) the results were Vaccinia Venus inconclusive.
C[C@H]1CN([C@@H](C)CO)C(=O)c2cc(C#Cc3cccnc3)cnc2O[C@H]1CN(C)Cc1ccc(F)cc1 was read as Vaccinia Venus -24.2% and Vaccinia mCherry inactive.
Screening O=C1OC(Nc2ccc(Cl)cn2)c2ccccc21 (stereo not drawn) returned Vaccinia Venus 0.3%.
`O=C(COC(=O)C1=Cc2ccccc2OC1)NC1CCCC1` gave Vaccinia Venus -2.5% and Vaccinia mCherry inactive.
`O=C(CN1C(=O)C2(OCCCO2)c2ccccc21)NCc1ccccc1` gave Vaccinia Venus -12.1% and Vaccinia mCherry inactive.
Screening Cc1cc(F)c(F)c(C(=O)N2CCOCC2)c1 returned Vaccinia Venus -10.0% and Vaccinia mCherry -19.2%.
Screening O=C(Nc1ccn(CCCNCC(c2ccccc2)c2ccccc2)c(=O)n1)OCc1ccccc1 returned Vaccinia Venus 11.2µM* and Vaccinia mCherry 12.6µM*.
Screening CCN(C(=O)C1CCN(S(=O)(=O)c2ccc3c(c2)CCCN3C(=O)C2CCC2)CC1)c1cccc(C)c1 returned Vaccinia Venus -19.4% and Vaccinia mCherry -14.2%.
For Cc1cc(C)cc(NC(=S)NC2CC3CCCC(C2)N3Cc2cccs2)c1 (stereo not drawn) the results were Vaccinia Venus inconclusive and Vaccinia mCherry inconclusive.
Screening COc1ccc(NCc2nnc(SCC(=O)c3ccc(OC)cc3)n2C)cc1 returned Vaccinia Venus -8.4% and Vaccinia mCherry -10.0%.
For Cc1cccc(C)c1OCc1nc2c3cnn(-c4ccccc4F)c3ncn2n1 the results were Vaccinia Venus -6.2% and Vaccinia mCherry -9.2%.
Cc1ccc(Nc2nc(N)nc(CC#N)n2)cc1 was read as Vaccinia Venus -10.4% and Vaccinia mCherry -15.8%.
For CN(C(=O)c1ccc(OC2CCN(S(=O)(=O)N(C)C)CC2)cc1)C1CCCCC1 the results were Vaccinia Venus -0.6% and Vaccinia mCherry inactive.
Screening COc1cc(OC)c(C2Nc3ccccc3-c3nnc(SCc4ccccc4)nc3O2)cc1OC (stereo not drawn) returned Vaccinia Venus 4.7% and Vaccinia mCherry -7.6%.
O=C(NC1CCC(O)CC1)c1ccc(S(=O)(=O)NCc2ccco2)cc1 (stereo not drawn) was read as Vaccinia Venus -4.9%.
O=C(NCc1ccco1)/C(=C/c1ccco1)NC(=O)c1ccccc1 was read as Vaccinia Venus -2.5% and Vaccinia mCherry -4.3%.
COc1ccc(CCC(=O)N2CCN(c3ccc([N+](=O)[O-])cc3)CC2)cc1OC was read as Vaccinia Venus -17.7% and Vaccinia mCherry -9.3%.
CCO[C@@H]1OC(C(=O)O)=C[C@H](c2ccccc2)[C@H]1CCCO was read as Vaccinia Venus -9.1% and Vaccinia mCherry inactive.
For Cc1cccnc1NC(=S)Nc1ccc(F)cc1F the results were Vaccinia Venus -9.2% and Vaccinia mCherry -27.6%.
Cc1ccsc1C(=O)OC(C)C(=O)Nc1ccc(Cl)cn1 (stereo not drawn) was read as Vaccinia Venus -13.9% and Vaccinia mCherry -18.3%.
O=C(Nc1cc2c3c(c1)CC(=O)N3CCC2)c1ccccc1Br was read as Vaccinia Venus -25.7% and Vaccinia mCherry -5.6%.
`Cc1ccc(C(=O)N(CC(=O)NC2CCCC2)c2ccccc2F)s1` gave Vaccinia Venus -26.7% and Vaccinia mCherry -7.6%.
Screening CC(=O)Nc1ccc(CN2CCC(N3CCC(C(=O)NC4CC4)CC3)CC2)cc1 returned Vaccinia Venus -2.5% and Vaccinia mCherry inactive.
O=C(NCCC(c1ccccc1)c1ccccc1)c1cccs1 was read as Vaccinia Venus -12.0% and Vaccinia mCherry -18.0%.
`CN1CCN(C(=O)C2=C[C@H](c3ccc4c(c3)OCO4)C[C@H](OCCCCO)O2)CC1` gave Vaccinia Venus -9.5% and Vaccinia mCherry -0.2%.
`O=C(O)CCCN1C(=O)C2C3c4ccccc4C(c4ccccc43)[C@@H]2C1=O` (stereo partly drawn) gave Vaccinia Venus -6.1% and Vaccinia mCherry -2.7%.
For Cc1cc(=O)[nH]c(Nc2ccc(C(=O)OC(C)C)cc2)n1 the results were Vaccinia Venus -16.0%.
Screening O=C(Nc1ccc(F)cc1)c1sc(Cl)nc1-c1ccccc1 returned Vaccinia Venus -19.8% and Vaccinia mCherry -22.6%.
`CCOC(=O)CCCNC(=O)COC(=O)c1ccc(O)cc1` gave Vaccinia Venus 0.7% and Vaccinia mCherry -11.6%.
Screening COc1ccc(/C=C/C(=O)NC2CCCCCCC2)cc1S(=O)(=O)N1CCOCC1 returned Vaccinia Venus inconclusive and Vaccinia mCherry inconclusive.
Screening O=C(CC1C(=O)NCCN1Cc1cccc(C(F)(F)F)c1)NCCc1cnccn1 (stereo not drawn) returned Vaccinia Venus 4.2% and Vaccinia mCherry -8.6%.
O=C(NC1CCS(=O)(=O)C1)c1ccc(Br)o1 (stereo not drawn) was read as Vaccinia Venus -1.0% and Vaccinia mCherry inactive.
For CCOc1ccc(NC(=O)CSc2ncc3c(n2)-c2ccccc2N(C)S3(=O)=O)cc1 the results were Vaccinia Venus 7.0% and Vaccinia mCherry -4.3%.
